Ba CapD inh = Bacillus anthracis CapD inhibitors, primary screen, biochemical, fluorescence intensity; purified CapD enzyme, fluorescence intensity read-out; stronger effect = lower value; some hits fall short of the stated cut; 0.23% of 140,000 active; CapD gamma-glutamyltranspeptidase (Bacillus anthracis Ames Ancestor); z-score (concentration not given with the values);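 active = z-score under -4 in either of two replicates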;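 note: stock transfer was 100 nL into about 40 µL; score is relative to mean and spread of the plate; one replicate is shown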
AID504770 = growth inhibition of E. coli YBA685, primary screen, V. cholerae RctB inhibitors; E. coli YBA685 rctB-dependent plasmid, OD600 growth, 3 h; stronger effect = lower value; 0.27% of 130,000 active; z-score (no concentration beside the values);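 active = z-score under -2 on both plates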;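 note: wells of about 30 µL received 100 nL stock; score is relative to mean and SD of the test wells; the first replicate is given; strong numbers were not always called active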
* marks the source's active call; other numbers are inactive results. Rows are unselected; overall some 0.37% were active at least once.

`CC(=O)Nc1ccncc1NC(C)=O` gave Ba CapD inh 0.26 and AID504770 0.75.
Screening CCc1ccccc1NC(=O)CSC1=C(C#N)C(c2ccc3c(c2)OCO3)C2=C(CCCC2=O)N1 (stereo not drawn) returned Ba CapD inh 2.31.
Screening Nc1ccc(-c2cc3ccccc3o2)cc1 returned Ba CapD inh -0.29 and AID504770 1.6.
For O=C(c1ccccc1F)N1CCN=C1c1ccccc1 the results were Ba CapD inh 0.37 and AID504770 -0.65.
`COc1ccc(CNC(=O)C(CC(C)C)NS(=O)(=O)c2ccc3nc(C)sc3c2)cc1` (stereo not drawn) gave Ba CapD inh 0.74 and AID504770 0.65.
Screening Cc1ccc(NC(=O)CN2C(=O)c3ccccc3C2=O)c(C)c1 returned AID504770 0.25.
O=C(c1ccc2c(=O)n(CCc3c[nH]c4ccccc34)c(=S)[nH]c2c1)N1CCN(c2ccccc2)CC1 was read as Ba CapD inh 0.04.
CSc1ccccc1NC(=O)CSc1cccc[n+]1[O-] was read as Ba CapD inh -0.675 and AID504770 0.3.
For CN(C)/C=C/C(=O)c1ccc(-c2cc(Cl)cc(Cl)c2)o1 the results were Ba CapD inh -0.245 and AID504770 0.2.
Screening Cn1c(=N)n(CC(O)c2ccccc2)c2ccccc21 (stereo not drawn) returned Ba CapD inh -0.115 and AID504770 -1.
`CC(C)(C)N1CC(OC(=O)c2ccc(Cl)cc2)C1` gave Ba CapD inh 0.59 and AID504770 0.
CC(C)CCNC(=O)C1CCN(C(=O)c2cc3sccc3n2C)CC1 was read as Ba CapD inh 0.19 and AID504770 1.85.
For COc1ccccc1/C=C1\N=C(c2ccc(OC)c(OC)c2)N(c2ccc(Br)c(C)c2)C1=O the results were Ba CapD inh 0.09.
`Cc1c(Cc2ccc(Cl)cc2)c(=O)n2c([nH]c3ccccc32)c1C#N` gave Ba CapD inh 9.96 and AID504770 -0.1.
Cn1c(=O)c2c(ncn2CC(=O)NCC#N)n(C)c1=O was read as Ba CapD inh 0.405 and AID504770 0.85.
Screening O=C(NCCCN1CCOCC1)c1cc2nc(-c3ccc(Cl)cc3)cc(C(F)(F)F)n2n1 returned Ba CapD inh 0.24.
`CS(=O)(=O)NNC(=O)CCC(=O)c1ccccc1` gave Ba CapD inh -0.62.
For COC(=O)c1ccc(-c2ccco2)n1CC(=O)NC(C)c1ccccc1 (stereo not drawn) the results were Ba CapD inh 1.95 and AID504770 1.75.
Screening COc1c(C(=O)NC(C)C(=O)OCc2ccccc2)cnc2c1c(C)nn2C (stereo not drawn) returned Ba CapD inh -0.385.
Screening N#C/C(N=Cc1ccc(Cl)cc1)=C(\C#N)NC(=O)Nc1ccc(OC(F)(F)F)cc1 returned Ba CapD inh 3.88 and AID504770 0.15.
For COc1cc(C2Nc3cc(Cl)ccc3O2)cc(OC)c1OC (stereo not drawn) the results were Ba CapD inh -0.01 and AID504770 -0.85.
For COc1ccc(C(=O)NC(CC(=O)O)c2ccc(OC)cc2)cc1 (stereo not drawn) the results were Ba CapD inh -0.51 and AID504770 -0.65.
`CC1CCC(NCC(O)c2ccccc2)CC1` (stereo not drawn) gave AID504770 0.6.
For COc1ccc2[nH]c(C(=O)N(C)c3ccc(F)cc3F)cc2c1 the results were Ba CapD inh 15 and AID504770 0.75.
N#Cc1ccccc1OCC(=O)N(Cc1ccccc1)C1C=CS(=O)(=O)C1 (stereo not drawn) was read as AID504770 0.6.
`CC(=O)N1c2ccc(C)cc2C2CN(C)CCC21` (stereo not drawn) gave Ba CapD inh -0.295.
For CCOC(=O)N1CCC(NC(=O)Nc2ccc(C)c(Cl)c2)CC1 the results were Ba CapD inh -0.13 and AID504770 0.85.
`c1cc(-c2ncc(-c3ccncc3)c(-c3ccncc3)n2)ccn1` gave Ba CapD inh -0.545.
`CC(C)(C)c1cc(C(F)(F)F)c(C#N)c(=O)[nH]1` gave Ba CapD inh 84.7 and AID504770 0.6.
Cc1ccc2cccc(OC(=O)c3ccccc3F)c2n1 was read as Ba CapD inh -0.305 and AID504770 0.
Screening C=CCN1C(=O)c2ccccc2Sc2ccc(C(=O)N3CCN(c4ccccc4OC)CC3)cc21 returned Ba CapD inh 0.075 and AID504770 -0.45.
`CC1(C)CC(=O)C=C(Sc2nc3ccccc3o2)C1` gave Ba CapD inh -0.355 and AID504770 -0.45.
Screening COc1cc(NC(=O)OC(C)(C)C)cc(OC)c1OC returned Ba CapD inh 0.19 and AID504770 0.9.
`CCOC(=O)C1=NN(c2cccc(Cl)c2)C2(S1)SC(c1ccc(Br)cc1)(c1ccc(Br)cc1)c1ccccc12` (stereo not drawn) gave Ba CapD inh -0.18.
Cc1ccc(N2CCN(c3cnn(-c4nc5ccccc5s4)c(=O)c3N(C)C)CC2C)cc1 (stereo not drawn) was read as Ba CapD inh -0.095 and AID504770 0.25.
Screening CCCOc1ccc(C2Nc3ccccc3C(=O)N2c2ccc(Cl)c(Cl)c2)cc1 (stereo not drawn) returned Ba CapD inh 3.19.
`Cc1cc2c(cc1C)C(c1ccccc1Cl)CC(=O)N2` (stereo not drawn) gave Ba CapD inh 0.33.
For O=C(NCc1ccccn1)OCc1ccc(C#Cc2ccccc2)s1 the results were Ba CapD inh 0.31.
`CC(C)C(N)c1ccccc1` (stereo not drawn) gave AID504770 -1.2.
Screening O=C(Cn1nnc2ccccc21)Nc1ccc2ccccc2c1 returned Ba CapD inh 7.08 and AID504770 0.25.
Screening Cc1ccc(N2C(=O)C(c3ccccc3)C(N3CCSCC3)C2=O)cc1 (stereo not drawn) returned Ba CapD inh -0.185 and AID504770 1.65.
`O=C(/C=C/c1ccc2c(c1)OCO2)NC1=NCCS1` gave AID504770 1.7.
For CCc1ccc(NC(=O)CCN2C(=O)c3ccccc3C2=O)cc1 the results were Ba CapD inh 0.04 and AID504770 0.2.
For O=C(CNC1CCCC1)Nc1ccc(N2CCCC2)cc1 the results were AID504770 -0.15.
Screening N/N=C(/C(=O)c1ccccc1)c1ccccc1 returned AID504770 1.05.

Among those listed so far, these contain a Cl atom.
For CN(C)/C=C/C(=O)c1ccc(-c2cc(Cl)cc(Cl)c2)o1 the results were Ba CapD inh -0.245 and AID504770 0.2.
`CC(C)(C)N1CC(OC(=O)c2ccc(Cl)cc2)C1` gave Ba CapD inh 0.59 and AID504770 0.
`Cc1c(Cc2ccc(Cl)cc2)c(=O)n2c([nH]c3ccccc32)c1C#N` gave Ba CapD inh 9.96 and AID504770 -0.1.
Screening O=C(NCCCN1CCOCC1)c1cc2nc(-c3ccc(Cl)cc3)cc(C(F)(F)F)n2n1 returned Ba CapD inh 0.24.
Screening N#C/C(N=Cc1ccc(Cl)cc1)=C(\C#N)NC(=O)Nc1ccc(OC(F)(F)F)cc1 returned Ba CapD inh 3.88 and AID504770 0.15.
For COc1cc(C2Nc3cc(Cl)ccc3O2)cc(OC)c1OC (stereo not drawn) the results were Ba CapD inh -0.01 and AID504770 -0.85.
For CCOC(=O)N1CCC(NC(=O)Nc2ccc(C)c(Cl)c2)CC1 the results were Ba CapD inh -0.13 and AID504770 0.85.
`CCOC(=O)C1=NN(c2cccc(Cl)c2)C2(S1)SC(c1ccc(Br)cc1)(c1ccc(Br)cc1)c1ccccc12` (stereo not drawn) gave Ba CapD inh -0.18.
Screening CCCOc1ccc(C2Nc3ccccc3C(=O)N2c2ccc(Cl)c(Cl)c2)cc1 (stereo not drawn) returned Ba CapD inh 3.19.
`Cc1cc2c(cc1C)C(c1ccccc1Cl)CC(=O)N2` (stereo not drawn) gave Ba CapD inh 0.33.

Next entries.
`COc1cc(CNn2c(-c3ccc(Br)cc3)nc3ccccc3c2=O)cc(OC)c1OC` gave Ba CapD inh -0.01.
CN1CCN(C(=O)COc2ccccc2O)CC1 was read as Ba CapD inh -0.12 and AID504770 -0.1.
Screening COc1cccc(C(=O)CS)c1 returned AID504770 2.35.
Screening COc1ccc(-c2cc(C(F)(F)F)n3nc(C(=O)NCCCn4ccnc4)cc3n2)cc1OC returned Ba CapD inh -0.495.
`COC(=O)c1cc2sc(Cl)cc2[nH]1` gave Ba CapD inh -0.1 and AID504770 -2.25.
`CCc1ccc(C2C(C(=O)OC)=CN(CC3CCCO3)C=C2C(=O)OC)cc1` (stereo not drawn) gave AID504770 0.75.
Screening CCc1ccc(-c2[nH]nc3nc(-c4ccc(O)cc4)cc(C(=O)O)c23)cc1 returned Ba CapD inh -0.315 and AID504770 -0.1.
Screening CC1CCCCC1NC(=O)COC(=O)c1ccccc1NCCO (stereo not drawn) returned AID504770 0.4.
For COC(=O)C(/C=N/Nc1ncc(C(F)(F)F)cc1Cl)n1cncn1 (stereo not drawn) the results were Ba CapD inh -0.575.
Nc1nnc(CCCN2C(=O)c3ccccc3C2=O)s1 was read as Ba CapD inh -0.43 and AID504770 -0.35.
For O=C(O)/C=C/C=C/c1ccc(Cl)cc1 the results were Ba CapD inh -0.37 and AID504770 1.6.
CC(C(=O)NCc1ccccn1)N(c1ccccc1)S(C)(=O)=O (stereo not drawn) was read as Ba CapD inh 5.79 and AID504770 -0.35.
Screening C=CCSc1nnnn1-c1ccc(OC(=O)C=C(C)C)cc1 returned Ba CapD inh -0.995 and AID504770 2.25.
For NS(=O)(=O)c1cc(OCC(F)(F)F)ccc1OCC(F)(F)F the results were Ba CapD inh -1.03 and AID504770 -0.85.
CC(NC(=O)c1cc2ccccc2oc1=O)c1ccccc1 (stereo not drawn) was read as Ba CapD inh 0.605 and AID504770 2.4.
For CN1C(=O)c2ccc(NC(=O)c3cccc4ccccc34)cc2C1=O the results were Ba CapD inh -0.47 and AID504770 1.65.
Screening CC(C)c1ccc(S(=O)(=O)c2cc3ccccc3oc2=O)cc1 returned Ba CapD inh 1.06 and AID504770 0.
COc1cccc(-n2cc(C(=O)N(Cc3ccccc3)C(C)C)c3ccccc3c2=O)c1 was read as Ba CapD inh 11.3 and AID504770 0.75.
COc1c2c(nc3occc13)C(CC=C(C)C)(OC)C(OC(C)=O)CC2 (stereo not drawn) was read as AID504770 1.7.
Cc1onc(-c2ccccc2Cl)c1C(=O)N1CCOCC1 was read as Ba CapD inh -0.585.
N#CC1=C(SCC(N)=O)NC(O)(C(F)(F)F)C(C(=O)c2cccs2)C1c1ccccc1Cl (stereo not drawn) was read as Ba CapD inh 0.3 and AID504770 -1.05.
CCCc1[nH]n(-c2ccc(F)cc2)c(=O)c1C=NC1CC(C)(C)NC(C)(C)C1 was read as Ba CapD inh -1.06.
CCC(=O)Nc1nc2ccc(CC)cc2s1 was read as AID504770 -1.75.
For CCOc1ccccc1NC(C)=O the results were Ba CapD inh -0.06 and AID504770 -0.9.
`N#CC1=C(N)C(C#N)(C#N)C(c2cccnc2)C2CSCC=C12` (stereo not drawn) gave Ba CapD inh 0.7 and AID504770 -0.85.
For O=C(NCCCCCC(=O)N1CCC(O)(c2ccc(Cl)cc2)CC1)OCc1ccccc1 the results were Ba CapD inh -0.44.
For Brc1cccc(-c2nnc3sc(CN4CCc5ccccc5C4)cn23)c1 the results were Ba CapD inh 0.645 and AID504770 -0.15.
For COc1cc(OCc2ccccc2)ccc1CN1CCN(c2ccccn2)CC1 the results were Ba CapD inh -0.26 and AID504770 -1.05.
CCCNC(=O)C1CCC(CNS(=O)(=O)c2ccc3c(c2)N(C(C)=O)CCO3)CC1 (stereo not drawn) was read as Ba CapD inh 0.08 and AID504770 -0.9.
For CC(C)OC(=O)c1sc2nc(N3CCOCC3)c3c(c2c1N)CC(C)(C)OC3 the results were Ba CapD inh 0.13.
Screening Cc1ccc(C(=O)OCC(=O)N2CC(C)OC(C)C2)cc1 (stereo not drawn) returned Ba CapD inh -0.22 and AID504770 -0.25.
Screening Cc1ccc2nc3[nH]c(=O)[nH]c(=O)c3nc2c1 returned Ba CapD inh 3.5.
`Cc1oc2cc(OC(C)C(=O)O)ccc2c(=O)c1Oc1ccccc1` (stereo not drawn) gave Ba CapD inh 0.475 and AID504770 0.85.
OC(CSCc1ccccc1)(c1ccc(Cl)cc1)c1ccc(Cl)cc1 was read as Ba CapD inh -0.61.
`CCN(CC(=O)NCc1ccc(F)cc1)C(=O)c1cc2ccccc2o1` gave AID504770 -0.45.
CCOC(=O)c1oc2ccccc2c1COC(=O)c1cccnc1SC was read as AID504770 0.1.
CN1CCN(c2nc3c(c(=O)n(C)c(=O)n3C)n2Cc2ccccc2Br)CC1 was read as Ba CapD inh 0.82.
For Cc1ccsc1CNCC(C)O (stereo not drawn) the results were Ba CapD inh -0.5 and AID504770 -0.3.
For CCOc1cc(/C=C2/C(=N)N3C(c4ccccc4)=CSC3=NC2=O)ccc1OCCOc1ccc(C)c(C)c1 the results were Ba CapD inh -0.085.
Cn1c(COc2ccccc2)nc2ccccc21 was read as Ba CapD inh 0.61 and AID504770 -0.65.
Cc1ccc(-c2cc(C(F)(F)F)nn2-c2ccc(S(N)(=O)=O)cc2)cc1 was read as Ba CapD inh 1.22 and AID504770 -0.05.
Cc1ccc(/C=C2/CC(C)C/C(=C\c3ccc(C)o3)C2=O)o1 (stereo not drawn) was read as Ba CapD inh -2.9 and AID504770 1.9.
CCC(C(=O)Nc1nn2c(-c3ccccc3)nnc2s1)c1ccccc1 (stereo not drawn) was read as Ba CapD inh 0.155 and AID504770 -1.4.
For CC(C)(C)C(O)Cn1c(=N)n(CCN2CCCCC2)c2ccccc21 (stereo not drawn) the results were Ba CapD inh -0.665 and AID504770 -0.55.
CCN(CC)C(=O)c1sc(NC(=S)N2CCN(C(=O)c3ccco3)CC2)c(C(=O)OC)c1C was read as Ba CapD inh -0.28 and AID504770 -0.35.
N#Cc1c(-c2ccco2)cc(C2CC2)nc1SCC(=O)c1ccccc1 was read as Ba CapD inh 0.16.
Screening COc1cccc(NC(=S)N2CCCCC2)c1 returned Ba CapD inh -0.27 and AID504770 1.3.
Screening CC[n+]1c(C)sc2sc3ccccc3c21 returned AID504770 -0.6.

Quoted at random: two compounds from above, in no set order.
O=C(c1ccc2c(=O)n(CCc3c[nH]c4ccccc34)c(=S)[nH]c2c1)N1CCN(c2ccccc2)CC1 was read as Ba CapD inh 0.04.
Screening CCCOc1ccc(C2Nc3ccccc3C(=O)N2c2ccc(Cl)c(Cl)c2)cc1 (stereo not drawn) returned Ba CapD inh 3.19.

High-throughput results from PubChem BioAssay.
